Beta cell apopt = inhibitors of cytokine-induced beta cell apoptosis, primary screen, luminescence; INS-1E cytokine-induced death, ATP luminescence, 48 h; percent of positive-control rescue, neutral wells zero; protection from apoptosis, % (test concentration not listed); hit rate 0.8% among 300,000; AID 435005, 2010;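 active means all replicates at 75% or more, or half of them and the mean; inconclusive means half reach 75% but not the mean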;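 further: 0% = cytokine-treated negative control wells and 100% = positive control rescue; higher means more ATP so stronger rescue from cytokine killing; wells of about 40 µL received 100 nL stock; the first replicate is given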
UCH37 DUB inh = inhibitors of human UCH37 deubiquitinase, primary screen, biochemical, Ub-AMC cleavage, fluorescence; inhibition, % (test concentration not listed); AID 588478, 2011; purified proteasome/UCH37; hit rate 0.33% among 330,000;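 active means mean of two replicates above 20%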;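 further: 0% = compound-free wells with enzyme and 100% = wells lacking proteasome; stock transfer was 100 nL into about 20 µL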
Target sequence (Q9Y5K5 whole entry, looked up): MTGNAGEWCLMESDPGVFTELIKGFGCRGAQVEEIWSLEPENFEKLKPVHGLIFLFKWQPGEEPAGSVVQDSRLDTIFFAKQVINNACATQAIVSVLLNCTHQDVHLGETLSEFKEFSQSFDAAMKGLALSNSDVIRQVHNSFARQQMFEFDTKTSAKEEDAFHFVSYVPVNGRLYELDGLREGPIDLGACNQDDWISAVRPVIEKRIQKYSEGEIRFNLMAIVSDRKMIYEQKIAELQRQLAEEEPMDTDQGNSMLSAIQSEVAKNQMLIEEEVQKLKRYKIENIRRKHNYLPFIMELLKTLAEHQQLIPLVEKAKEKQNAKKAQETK
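System: Proteasome-associated human UCH37 deubiquitinase; Input: 0.15 nM proteasome in added enzyme buffer; Also added: Ub-AMC substrate from 1 µM stock; Incubation: 30 min compound-proteasome preincubation then 25 min substrate reaction, room temperature; Detection: fluorescence, ex 355 nm, em 460 nm; Read-out: % inhibition of Ub-AMC cleavage fluorescence; Benchmarks: no-proteasome and no-compound wells.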
RanGTP-Impb inh = inhibitors of RanGTP-importin-beta interaction, primary screen, biochemical, FRET, CFP-Ran, YFP-importin-beta, homogeneous | Ran GTPase (GTP-bound) - importin-beta complex | cell-free CFP-Ran/YFP-importin-beta FRET ratio | inhibition, % (test concentration not listed) | hit rate 1.1% among 300,000;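 active means most replicates above 15%; inconclusive means exactly half above 15%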;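 further: 0% = DMSO wells and 100% = Ran loaded with GDP instead of GTP; wells of about 40 µL received 100 nL stock; the first replicate is given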
Bfl-1 A1 inh = caspase 3/7 activation in MEF A1-2A-BIM cells, primary screen, A1 inhibitor project, cell-based, luminescence, HTS. hit rate 0.066% among 330,000. AID 2462, 2010. caspase activation, % (concentration not given with the values). Caspase-Glo 3/7 luminescence, 3 h; percent of clofoctol response, vehicle zero;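 active means over half of replicate activation scores above 10%, or exactly half above 10 with the replicate mean above 10; inconclusive means replicate mean below 10 yet half the replicates above 10; inactive means over half of replicates below 10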;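 further: wells of about 30 µL received 50 nL stock; many hits fall short of the cut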
T cruzi inh = inhibitors of intracellular T. cruzi growth, primary screen, luminescence, NIH3T3 host cells. T. cruzi beta-gal in NIH3T3, 90 h. inhibition, % (concentration not given with the values). hit rate 1.4% among 300,000. AID 1885, 2009;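 active means mean inhibition across valid replicates above about 55%, limit read from the data; inconclusive means mean below that limit but half or more replicates reach it; inactive means mean below it, under half of replicates reach it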;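 further: signal also drops with host cell toxicity which is not excluded here; 0% = plate median of DMSO wells and 100% = zero luminescence signal; higher percent means less beta-gal luminescence so fewer parasites; stock transfer was 50 nL into about 50 µL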
Calb FLC = C. albicans growth inhibition with fluconazole, primary screen, CaCi-2 strain, Alamar Blue fluorescence. C. albicans CaCi-2 (fluconazole-resistant clinical isolate) + fluconazole, 48 h. growth inhibition, % (no concentration beside the values). hit rate 0.57% among 300,000. AID 1979, 2009;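 active means most replicates above 75%; inconclusive means exactly half above 75%; inactive means most below 75%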;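 further: all wells also contain fluconazole at 8 µg/ml as a sub-toxic cotreatment; 0% = median of DMSO wells and 100% = median of geldanamycin control wells; wells of about 8 µL received 7.5 nL stock; the first replicate is given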
LANA-H2A inh = blockers of LANA interaction with H2A/H2B – biochemical, FP readout, HTS, primary screen; cell-free LANA-H2A/H2B peptide, fluorescence polarization; inhibition, % (no concentration beside the values); hit rate 0.6% among 320,000; AID 2629, 2010; in the data active means inhibition mostly above about 10%, no sharp cut-off; inactive means mostly below about 6.7%;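 further: stock transfer was 7.5 nL into about 10 µL; 0% = median of vehicle wells and 100% = median of positive control wells; one replicate is shown; the record names a cut of 25% in any replicate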
B2AR ag = beta2AR agonists driving receptor internalization, primary screen, cell-based, FAP fluorogen, flow cytometry. hit rate 0.43% among 340,000. Beta-2 adrenergic receptor (Homo sapiens), P07550. Am2.2-beta2AR cells; reference of the scale not given here. response, % (no concentration beside the values). AID 504454, 2011;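 active means response above a set limit, near 3 SD of response in nonfluorescent compounds, cut at about 42% in these data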;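 further: stock transfer was 100 nL into about 11 µL; a reference agonist was the positive control; negative values mostly stem from fluorescent compounds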
Target sequence (P07550 whole entry, looked up): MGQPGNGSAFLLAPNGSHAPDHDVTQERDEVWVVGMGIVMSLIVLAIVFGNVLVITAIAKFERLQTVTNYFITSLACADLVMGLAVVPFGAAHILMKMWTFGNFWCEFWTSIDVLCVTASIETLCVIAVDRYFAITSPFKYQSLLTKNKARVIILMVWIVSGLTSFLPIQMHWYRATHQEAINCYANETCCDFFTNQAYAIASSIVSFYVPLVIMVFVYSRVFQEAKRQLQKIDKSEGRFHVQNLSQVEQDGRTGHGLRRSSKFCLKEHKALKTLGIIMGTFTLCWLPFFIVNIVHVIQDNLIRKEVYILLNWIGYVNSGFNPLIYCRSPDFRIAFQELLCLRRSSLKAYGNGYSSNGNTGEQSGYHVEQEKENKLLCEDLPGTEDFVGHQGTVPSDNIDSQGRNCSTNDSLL
An asterisk follows results filed as active; u = inconclusive; x = not tested or not shown.

SMILES	Beta cell apopt	UCH37 DUB inh	RanGTP-Impb inh	Bfl-1 A1 inh	T cruzi inh	Calb FLC	LANA-H2A inh	B2AR ag
N#Cc1ccccc1Cn1cc(/C=C/[N+](=O)[O-])c2ccccc21	x	2.2	2.3	0.5	1	-36	-0.2	95*
O=C(O)C1CC=CCC1C(=O)N1CC=C(c2ccccc2)CC1 (stereo not given)	-6	2.2	x	0.7	6	-13	0.8	2
COc1ccc(NC(=O)CCCCCN2C(=O)c3cccc([N+](=O)[O-])c3C2=O)c(OC)c1	-5	0.0	0.5	0.2	-7	-2	9.8	-8
Cc1ccc(/C=N/NC(=O)CNC(=O)c2cccs2)cc1	-6	x	-2.9	-0.1	-3	17	0.0	4
CC(C)n1nc(C(=O)Nc2cccc(S(=O)(=O)N3CCCCC3)c2)c2ccccc2c1=O	-5	2.0	x	0.2	x	x	-223	7
O=C(Nc1ccc2c(c1)OCCO2)C1CCN(S(=O)(=O)c2ccccc2)CC1	x	-0.4	3.5	1.5	16	-5	-2.8	3
COc1ccc(C(=O)/C(=C\c2ccco2)N2C=CC=CC2=C(C#N)C#N)cc1	94*	-12	u	2.0	52	26	2.4	60*
COc1cc(/C=N/NC(=O)c2cccc(S(=O)(=O)N3CCCC3)c2)ccc1O	-3	x	x	0.6	-13	-8	-30	11
CCNC(=O)CC1C(=O)N(c2ccc(C)cc2)C(=O)N1CCC(C)C (stereo not given)	x	-0.7	-3.4	-0.4	-7	-4	-7.6	-6
O=C(COc1ccc([N+](=O)[O-])cc1)Nc1cccc(C(=O)Nc2ccccc2C(=O)O)c1	0	4.2	0.2	0.1	-8	21	-3.5	-4
CC/C=C\[C@H](O)[C@H](O)C1=C(C)C(=O)[C@]2(O1)C(=O)N[C@@](OC)(C(=O)c1ccccc1)C2O (stereo not given in full)	-15	-1.6	3.6	-0.7	8	5	-4.0	3
CCOC(=O)c1c(NC(=O)COC(=O)c2c(C)noc2C)sc2c1CCC2	x	-4.7	3.1	-0.4	9	-13	-8.0	-4
CSc1nc2c(c(-c3ccc(O)cc3)c1C#N)CCC2	5	-4.2	-0.9	-1.3	-1	12	-0.5	7
Cc1oc(-c2ccc3ccccc3c2)nc1CN(C)C(C)c1ccncn1 (stereo not given)	5	-12	7.4	-2.2	-23	-1	-3.6	2
O=C1OCCN1C(=O)[C@H]1[C@H](c2ccc(Cl)cc2)C(c2cccc(Cl)c2)=NN1c1ccccc1	2	-81	30*	0.8	4	-5	1.4	10
CSc1ncc(S(=O)(=O)c2ccccc2)c(=O)[nH]1	-3	-0.3	3.5	-0.1	-1	6	0.1	3
COCCN(C(=O)COC(=O)c1cc2c(s1)CCC2)c1c(N)n(Cc2ccccc2)c(=O)[nH]c1=O	-3	x	0.0	0.1	1	x	2.3	-8
CC(C)n1c(O)c(N=Nc2ccc(Cl)c(C(=O)O)c2)c2ccccc21	-5	15	9.1	1.1	-7	-3	0.8	10
O=C(Cc1cc(=O)[nH]c(=O)[nH]1)NCC1CCCO1 (stereo not given)	3	2.4	1.2	1.1	-11	0	1.5	1
OCC1(Cc2ccccc2)CCN(Cc2ccc(C(F)(F)F)cc2)CC1	2	2.1	-1.4	0.1	27	-19	3.3	-10
Cc1cc(C)nc(SCC(=O)OCN2C(=O)c3ccccc3C2=O)n1	-5	-0.9	3.1	0.4	-23	-2	0.4	-3
CCOC1=NN(c2ncc(C(F)(F)F)cc2Cl)C(=O)C1	-1	3.6	-1.2	u	-2	1	1.4	5
Cc1ccc(C(=O)COC(=O)C2CCC2)cc1	x	x	-13	-0.4	-18	-11	3.0	-3
O=C(NCCc1ccccc1)c1cnc(Cl)c(Cl)c1	-1	2.4	0.1	-0.6	5	1	1.1	7
O=C(NCCCn1ccnc1)c1noc2c1CCc1ccccc1-2	-3	9.6	4.5	-0.1	10	11	-1.4	-7
SMILES	Beta cell apopt	UCH37 DUB inh	RanGTP-Impb inh	Bfl-1 A1 inh	T cruzi inh	Calb FLC	LANA-H2A inh	B2AR ag
Cc1ccccc1NC(=S)NC(C)C(c1cccs1)N1CCOCC1 (stereo not given)	8	0.7	-0.7	x	5	-11	3.3	0
COc1cc(C(=O)OCC(=O)N(C)Cc2ccccc2)cc(OC)c1OC	1	-5.8	1.7	-0.6	16	u	0.8	-3
COc1ccc(S(=O)(=O)N2CCOCC2)cc1C(=O)NCc1ccccc1CN1CCCC1	-1	0.3	x	-0.4	x	x	0.3	-3
COCCn1c(Sc2ccc(C)cc2)nc2c1c(=O)[nH]c(=O)n2C	1	6.7	0.1	0.1	-1	13	-3.3	4
CC(c1ccco1)N(C(=O)c1cccc(S(=O)(=O)N(C)C)c1)c1ccccn1 (stereo not given)	-5	0.5	2.3	-0.7	2	0	10.0	0
CC(C)C(=O)N1CCN(c2c(Cl)cccc2[N+](=O)[O-])CC1	-3	2.6	-4.9	-0.4	-5	0	-2.1	6
O=C(CN1C(=O)NC2(CCc3ccccc3C2)C1=O)NCc1ccco1 (stereo not given)	-2	-2.0	x	0.3	3	-6	-5.5	1
COC(=O)c1ccccc1NC(=O)c1cc[n+]([O-])cc1	-3	2.3	-2.1	0.9	-21	11	3.0	5
CC(NC(=O)c1ccco1)C(=O)N1CCN(c2cccc(C(F)(F)F)c2)CC1 (stereo not given)	8	2.8	x	0.4	x	x	-1.1	2
COc1ccc(C(=O)NCC(=O)OCc2ccccc2F)cc1	-5	1.9	-0.8	0.1	-14	-20	10.0	1
N#Cc1ccc(C(=O)N(Cc2ccccc2)c2ccccc2)cc1	-5	1.8	0.4	0.2	6	34	3.7	33
CC(OC(=O)c1ccc(Cl)nc1)C(=O)NC1CCCC1 (stereo not given)	-2	4.6	x	1.3	x	x	x	-2
CCOCCCNC(=O)N[C@H](C(=O)OC)C(C)CC (stereo not given in full)	x	6.0	5.0	u	x	26	-3.0	0
O=S(=O)(c1ccccc1)c1cccc(S(=O)(=O)N2CCCCC2)c1	0	1.3	3.0	-0.3	8	-3	-3.2	1
CC(=O)NN1CCc2cc3ccc(C)cc3nc21	x	-120	-4.4	0.7	5	3	-2.0	13
CN(Cc1ccccc1)C(=O)Cc1ccccc1	-1	2.8	-0.7	1.0	-6	-3	-2.9	5
O=C(N/N=C/c1cccnc1)c1ccccc1	-3	x	-2.1	-0.3	-9	-3	-6.1	-1
CC(C)(Sc1ccc(CCN(CCCCC2CCCCC2)C(=O)NC2CCCCC2)cc1)C(=O)O	-1	7.5	x	0.3	x	x	-4.3	5
COc1ccc(CNC(=O)C(=O)NCC2OCCN2S(=O)(=O)c2ccc3c(c2)OCCO3)cc1 (stereo not given)	-7	-1.1	0.3	-0.2	-5	-2	4.8	1
CC[N+](C)(CC)CC(=O)OCC1C(C)C=C(C)CC1C (stereo not given)	-9	3.6	-2.7	0.4	-6	-4	2.4	4
COc1ccc(C2C(C(=O)Nc3ccccn3)=C(C)Nc3ncnn32)c(OC)c1 (stereo not given)	-2	9.3	-4.5	-0.1	-2	0	-2.3	-19
CCn1nnnc1Oc1ccc(Cl)cc1	-4	2.0	3.8	0.3	-46	1	-5.4	6
CCn1c(SCC(=O)c2ccc(OC)cc2)nnc1C(C)NC(=O)c1ccc(OC)cc1 (stereo not given)	-6	2.0	0.0	-0.5	0	-10	-0.7	7
S=C(Nc1ccccc1)Nc1ccc(Br)cc1	-1	2.7	u	0.4	10	-1	3.3	4
O=C(Nc1nccs1)c1ccc(Br)c(S(=O)(=O)N2CCCC2)c1	2	0.9	5.7	-0.4	-2	4	-4.7	11
SMILES	Beta cell apopt	UCH37 DUB inh	RanGTP-Impb inh	Bfl-1 A1 inh	T cruzi inh	Calb FLC	LANA-H2A inh	B2AR ag
CCOC(=O)NNC1CC(=O)N(c2ccc(OC)cc2)C1=O (stereo not given)	-5	-1.0	-1.6	1.7	-11	2	-0.6	5
O=C(COC(=O)Cc1ccccc1[N+](=O)[O-])NCc1ccc(Cl)cc1	-9	1.3	-0.4	u	9	1	3.3	2
COc1ccc(NC(=O)C2C(c3ccccc3)C2(Cl)Cl)c(OC)c1 (stereo not given)	3	4.5	-1.5	0.3	-5	-9	-3.8	0
CC(C)OCCCNC(=O)CCN1C(=O)COc2ccccc21	-5	4.4	3.2	0.2	-20	24	-2.5	-10
Cc1ccc(NC(=O)CSc2nnc(-c3cccnc3)n2CCN2CCCCC2)cc1	-1	4.5	0.8	0.3	-8	25	-2.2	-12
COc1ccc(-c2cc(N3C(=O)Nc4ccccc4N3O)n[nH]2)cc1OC	-9	-2.7	3.2	-0.2	-26	26	x	-4
CN1CCC(N(CCc2ccccc2)C(=O)CCC(=O)O)CC1	-10	3.7	-1.8	-0.2	-7	7	-1.9	-2
COc1ccc(C(=O)Nc2ccc(-c3nnn(CC(=O)NCc4ccco4)n3)cc2)cc1	19	-3.6	1.0	0.9	-6	-26	-4.3	-6
O=C(Nc1ccccc1)c1cccnc1NCCc1ccccc1	-17	-6.3	-3.1	-1.2	2	-1	-0.7	-21
CCC1CCC2(CC1)NC(=O)N(CC(=O)c1c(C)[nH]c3ccccc13)C2=O (stereo not given)	-9	0.9	3.3	-0.3	-8	-48	-7.6	-11
Cc1cc(C(=O)Nc2ccc(Cl)cc2)c(C)n1Cc1cccs1	-6	6.0	5.0	-3.8	2	7	0.0	7
CCOc1ccccc1/C=N/NC(=O)CSc1n[nH]c(=O)[nH]c1=O	-5	x	0.7	0.2	-14	28	1.3	-8
CCOC(=O)c1sc(NC(=O)c2ccc(S(=O)(=O)N(C)C)cc2)nc1C	1	-15	-2.8	-1.7	-11	-11	-3.8	6
C/C(=N\Nc1cccc2cccnc12)c1ccc(N)cc1	5	x	1.0	-0.4	-23	42	6.1	5
COc1ccc(NC(=O)CN(C)C(=O)CCC2CCCC2)cc1	6	0.2	3.2	-0.3	-4	0	-1.0	-4
COc1ccc2c(c1)c1nc3ccccc3nc1n2Cc1ccc(OC(C)C)c(OC)c1	-2	0.8	-11	2.0	6	-5	-5.9	-7
CCOC(=O)c1sc2ncnc(N3CCN(C(=O)OCC)CC3)c2c1C	7	-1.0	0.1	-0.1	14	10	-1.8	-6
COc1ccc(OC)c(NC(=O)CNC(c2ccccc2)c2ccccc2)c1	5	4.7	0.0	0.5	26	10	3.1	2
COc1cc(/C=C2\SC(=O)N(CCNC(=O)c3sc4cc(F)ccc4c3Cl)C2=O)cc(OC)c1OC	8	0.4	1.3	-0.8	-12	1	15*	2
CCn1c(P(C)(=O)O)nc2cc(NC(=O)c3ccccc3Cl)ccc21	-6	-0.7	-5.0	-0.5	-14	-5	5.5	20
